# Ba CapD inh: Bacillus anthracis CapD inhibitors, primary screen, biochemical, fluorescence intensity. CapD gamma-glutamyltranspeptidase (Bacillus anthracis Ames Ancestor). purified CapD enzyme, fluorescence intensity read-out; active compounds read low; some hits fall short of the stated cut. z-score (concentration not given with the values). actives 0.23% (n = 140,000). AID 492967, 2010;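 active = z-score under -4 in either of two replicates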;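 also: stock transfer was 100 nL into about 40 µL; score is relative to mean and spread of the plate; one replicate is shown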
# AID504770: growth inhibition of E. coli YBA685, primary screen, V. cholerae RctB inhibitors | E. coli YBA685 rctB-dependent plasmid, OD600 growth, 3 h; active compounds read low | actives 0.27% (n = 130,000) | z-score (no concentration beside the values);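 active = z-score under -2 on both plates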;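 also: wells of about 30 µL received 100 nL stock; score is relative to mean and SD of the test wells; the first replicate is given; strong numbers were not always called active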
# Starred values were filed as active, the others as inactive; nt = not tested or not shown; & = joins results of further samples. A portion of the library (hit frequency here may not be typical).
# The opening two records as a preview:
# Values run as follows: Ba CapD inh	AID504770
> CCn1c(=O)cc(OCC(=O)NCCCN2CC(C)CC(C)C2)c2ccccc21 (stereo not drawn)
→ 0.74	0.1
> COc1ccccc1-n1c(CNC(=O)COc2ccccc2)nnc1SCC(=O)N1CCc2ccccc21
→ -0.19	nt

# The listing (from the top)
# Values run as follows: Ba CapD inh	AID504770
> CCn1c(=O)cc(OCC(=O)NCCCN2CC(C)CC(C)C2)c2ccccc21 (stereo not drawn)
→ 0.74	0.1
> COc1ccccc1-n1c(CNC(=O)COc2ccccc2)nnc1SCC(=O)N1CCc2ccccc21
→ -0.19	nt
> CC1CCCCC1NC(=O)c1ccc[nH]c1=S (stereo not drawn)
→ nt	1.15
> COC(=O)c1cc(=O)c2cc(C)ccc2o1
→ nt	-0.3
> CCN(CC)S(=O)(=O)c1ccc(/C=C/C(=O)Nc2ccc(-n3cnnn3)cc2)cc1
→ nt	1.75
> O=C(Nc1ccc(-n2cc(-c3cnccn3)cn2)cc1)C(c1ccccc1)c1ccccc1
→ 4.23	nt
> O=C(Nc1ccccc1C(F)(F)F)c1cccn(OCc2ccccc2)c1=O
→ 0.405	-0.7
> O=C1CCCCCC1C1(O)C(=O)Nc2ccc(Br)cc21 (stereo not drawn)
→ -0.13	nt
> OC1(C(F)(F)F)CC(/C=C/c2ccccc2)=NO1 (stereo not drawn)
→ 0.365	-0.65
> CC(=O)Oc1ccc(/C=C2N=C(/C=C/c3cccc(Cl)c3Cl)OC\2=O)cc1OC(C)=O
→ -2.45	nt
> CN(C)CC1CCCCC1OC(=O)c1ccccc1Cl (stereo not drawn)
→ -0.07	-2.05
> CCOC(=O)Cn1c(=O)c(=O)n(C)c2c1c(C)nn2-c1ccccc1
→ -0.8	-0.85
> Nc1cc2c(cc1C(O)(C(F)(F)F)C(F)(F)F)OCCO2
→ 0.705	1.65
> CC1(O)COc2ccccc2O1 (stereo not drawn)
→ -0.625	2.3
> c1coc(CNc2ncnc3nc[nH]c23)c1
→ 1.01&-0.615&-0.27	0

# One compound at a time (already shown).
# `CC(=O)Oc1ccc(/C=C2N=C(/C=C/c3cccc(Cl)c3Cl)OC\2=O)cc1OC(C)=O` is entered as Ba CapD inh: -2.45; AID504770: nt
# `CC1CCCCC1NC(=O)c1ccc[nH]c1=S` (stereo not drawn) is entered as Ba CapD inh: nt; AID504770: 1.15
# `O=C(Nc1ccc(-n2cc(-c3cnccn3)cn2)cc1)C(c1ccccc1)c1ccccc1` is entered as Ba CapD inh: 4.23; AID504770: nt

# (list continues)
# Values run as follows: Ba CapD inh	AID504770
> COc1ccc(C(=O)Nc2ccccc2)cc1S(=O)(=O)N1CCN(c2ccccc2)CC1
→ 0.1	-2.35
> N#C/C(=C\Nc1ccc(OC(F)(F)F)cc1)C(=O)c1ccco1
→ -0.17	0.85
> CN(C)c1nnnn1-c1cccc(C(F)(F)F)c1
→ -0.12	0.35
> Cc1ccc2c(c1)-c1ccccc1S(=O)(=O)N2C(=O)c1ccccc1
→ 0.375	nt
> COc1ccc(C(=O)NC2Cc3ccccc3C2)cc1OC
→ -0.315	0.05
> O=C(Nc1ccccc1)C(Cc1ccccc1)N1C(=O)C2C3C=CC(C3)C2C1=O (stereo not drawn)
→ 7.24	0.05
> C1CCN(CC2COC3(CCCCC3)O2)CC1 (stereo not drawn)
→ 0.055	-0.3
> CCCCN1C(=O)/C(=C\c2ccc3c(c2)OCO3)SC1=S
→ 0.03	0.35
> COc1ccc(CCN(C)S(=O)(=O)c2ccc(Cl)s2)cc1OC
→ nt	-0.55
> COC(=O)c1cc2sccc2n1C
→ 0.18	0.3
> c1ccc(CN(Cc2ccccc2)c2nn[nH]n2)cc1
→ 0.07	1.05
> CN(CC(=O)Nc1cc(S(C)(=O)=O)ccc1Cl)Cc1nc2ccccc2c(=O)[nH]1
→ nt	0.15
> CCS(=O)(=O)Nc1cc2c3c(n(S(=O)(=O)CC)c2cc1OC)CCCC3=O
→ nt	0.1
> O=C(CC12CC3CC(CC(C3)C1)C2)Nc1c(F)cccc1F
→ -0.38	2.55
> N#CCCNc1cc(C(F)(F)F)cc(C(F)(F)F)c1
→ 0.365	nt
> NC(=O)CSc1ccccc1NC(=O)c1ccc(=O)[nH]c1
→ nt	0.1
> C=CCNC(=O)c1ccc(C)c(S(=O)(=O)N(CC)CC)c1
→ nt	1.55
> COc1ccccc1N(C)S(=O)(=O)c1ccc(Cl)c(C(=O)O)c1
→ nt	-0.3
> Cc1onc(-c2ccccc2)c1-c1ccnn1C(=O)NC(C)C
→ -0.445	-1.65
> CC1=C(C(=O)Nc2ccccn2)C(c2cc([N+](=O)[O-])ccc2Cl)C2=C(CC(C)(C)CC2=O)N1 (stereo not drawn)
→ -0.43	nt
> Nc1nc(N)nc(N2C(=O)c3ccccc3C2=O)n1
→ nt	-0.6
> Cc1ccc(CNS(=O)(=O)c2cccs2)n1C
→ 1.62	-0.95
> CCOC(=O)CSCCOc1ccc(/C=C2/C(=O)NC(=O)N(c3cccc(C)c3)C2=O)cc1OC
→ -0.355	nt
> COC(=O)Nc1ccc(S(=O)(=O)N2CCC(C(=O)O)CC2)cc1
→ 0.05	nt
> O=C1CSC(=S)N1c1ccccc1
→ -0.005	-1
> CCOc1ccccc1-n1c(SCC(=O)c2cccc([N+](=O)[O-])c2)nnc1-c1cccnc1
→ -0.29	nt
> O=C1S/C(=C\c2ccco2)C(=O)N1c1ccccc1
→ -2.41*	1.1
> COc1ccc(Oc2c(C(F)(F)F)oc3cc(OC(=O)c4cccs4)ccc3c2=O)cc1
→ -0.405	nt
> Cc1nc(Cc2nnc(SCC(=O)N3c4ccccc4Sc4ccccc43)o2)cs1
→ nt	1.35
> Cc1ccc(Sc2ccc(CO)o2)cc1
→ -0.31	-0.35
> CCOC(=O)c1c(N)n(C2CCCCC2)c2nc3ccccc3nc12
→ -0.515	-0.55
> C=CCN1C(=O)CS/C1=N\S(=O)(=O)c1ccc(Cl)s1
→ nt	0.1
> CN(C(=O)/C=C\C(=O)O)C1CCS(=O)(=O)C1 (stereo not drawn)
→ 0.04	0.8
> COc1cccc(NC(=S)NCc2ccco2)c1
→ -0.24	nt
> Cc1cc(C)c(C)c(C2=NON3N(C(=O)C45CC6CC(CC(C6)C4)C5)c4ccccc4N23)c1C
→ 0.37	nt
> COc1ccccc1OCCSc1nc2ccc(Br)cc2[nH]1
→ 0.165	nt
> Cc1noc(C(=O)Nc2sc3c(c2C#N)CCC3)c1Cl
→ -2.24	-1.15
> CC(Sc1nncn1C)C(=O)Nc1ccc(Cl)cc1 (stereo not drawn)
→ nt	-0.7
> O=C(O)CCCC(=O)N1CCN(S(=O)(=O)c2ccc(Br)s2)CC1
→ -0.75	1.15
> CN1CCN(C(=O)CCCN2C(=O)/C(=C/c3ccc(Cl)cc3)SC2=S)CC1
→ 0.04	-0.4
> CCOC(=O)C1CCN(CC(=O)c2ccc(C)cc2)CC1
→ 0.76	-0.05
> N#CCC(=O)NNC(=S)NC1CC2C=CC1C2 (stereo not drawn)
→ 0.32	nt
> Cc1c(C(=O)Nc2ccccc2)cnn1-c1ccc(F)cc1
→ 0.485	-0.4
> N=C(N)SCC1CN=C(N)S1 (stereo not drawn)
→ -1.04&0.13	1.15&0.05
> O=C(O)c1ccc(NS(=O)(=O)c2ccc(N3C(=O)CCC3=O)cc2)cc1
→ nt	0.25

# Next records.
SMILES,Ba CapD inh,AID504770
COc1cc(F)ccc1S(=O)(=O)N1CCCCC1C (stereo not drawn),0.565,0.2
CCCN(CCC)Cc1c(O)ccc2c(=O)c(-c3ccccc3)coc12,-0.925,-0.5
Cn1nccc1NS(=O)(=O)c1ccc(C(C)(C)C)cc1,-0.745,nt
N#Cc1c(C(F)(F)F)cc(-c2ccccc2)nc1SCC(=O)C1CC1,11.8,nt
Cc1cc(C)cc(N(C(=O)C(C)(C)C)C2C=CS(=O)(=O)C2)c1 (stereo not drawn),nt,-0.1
Cc1cc(SCCN2CCOCC2)nc2ccccc12,nt,-0.5
COC(=O)/C=C1/NCCCNC1=O,-0.69,-0.3
O=C(COc1ccccc1)NC(=S)Nc1ccc2[nH]c(=O)[nH]c2c1,-0.3,-0.95
Cc1cc(C)c2c(c1)CC(C)(C)/C(=N/NC(=O)CC#N)C2=O,0.795,-0.15
CC(=O)OCc1cc(-c2nn(C)c(=O)c3ccccc23)ccc1C,-0.02,0.1
Nc1ccc2c(c1)N1CCN=C1S2,0.115,-0.05
CCn1cc(SCC(=O)Nc2nc3ccccc3s2)c2ccccc21,nt,1
O=C(O)CNC(=O)CSc1ccc(Cl)cc1,0.02,-0.65
CCOC(=O)c1c(NC(=O)C(C)Sc2nnc(CNC(=O)c3ccc(OC)c(OC)c3)n2C)sc2c1CCC2 (stereo not drawn),-0.45,nt
Cc1sc(NC(=O)c2cc3cc(Br)ccc3oc2=O)nc1-c1ccccc1,-0.155,nt
COc1ccc(Nc2c3c4c(c(Br)ccc4n(C)c2=O)C(=O)c2ccccc2-3)cc1,-0.49,nt
O=C(NC1CCCCC1)C(Cc1ccccc1)N1C(=O)C2C3C=CC(C3)C2C1=O (stereo not drawn),nt,-0.25
COC(=O)N/N=C(/C)c1ccc(Oc2ncc(C(F)(F)F)cc2Cl)cc1,-0.015,nt
Cc1ccc(-c2ccccc2)n1-c1ccc(O)cc1,0.975,-0.15
CC(C)(C)C(=O)c1sc2c(c1N)c(=O)[nH]c(=O)n2C1CCCCC1,nt,-0.1
COC(=O)C1CCN1C1CCCCC1 (stereo not drawn),0.145,-0.6
S=C(Nc1ccccn1)Nc1ccccn1,-0.975,-0.55
O=C(NS(=O)(=O)c1ccc(Cl)s1)c1ccccc1,-0.33,0
N#CCSc1ccccc1C(=O)O,nt,-0.45
COc1ccc(-c2cc(C(=O)N(C)c3cccc(C)c3)no2)cc1S(=O)(=O)N1CCC(C)CC1,0.45,-0.55
O=C(NNC(=O)C(F)(F)F)c1ccc[nH]1,-0.32,nt
Nc1cc(-c2ccccc2)nn1S(=O)(=O)c1cccc2nsnc12,-1.58,1.7
Cn1c(=S)[nH]c2sccc2c1=O,nt,-1.85
CCOCCOC(=O)C(C)Oc1ccc2c(=O)c(Oc3ccccc3Cl)coc2c1 (stereo not drawn),-0.09,nt
O=C(Nc1cccc2ccccc12)c1cnn2c1NC(c1ccccc1)CC2C(F)(F)F (stereo not drawn),0.59,-0.65
CCCC1CCC(=NN=C(N)N)CC1 (stereo not drawn),nt,0.1
Cc1ccc(Nc2nc(CSc3nnnn3C3CC3)cs2)cc1,nt,-0.15
CCCN(CCC)S(=O)(=O)c1cccc2c(N)cccc12,-0.51,nt
N#CC1=C(N)c2ccccc2CC12CCCC2,-0.055,nt
CCc1ccc(NC(=O)CCS(=O)(=O)c2ccc3c(c2)CC(=O)N3C)cc1,0.015,-0.5
CC(C)CCNC(=O)c1ccc2c(=O)n3c(nc2c1)CCCCC3,4.11,-3.3
CC(=O)N(c1ccc(C)c(C)c1)C1C=CS(=O)(=O)C1 (stereo not drawn),-1.81,-0.45
CC(C)CC(=O)Nc1ccccc1NC(=O)CC(C)C,-0.015,0.65
COc1ccc(/C=C/C(=O)C2=C(O)c3ccccc3C2=O)cc1,-1.23,2.95
COc1cccc(OCc2cc(C3Nc4ccccc4C(=O)N3c3cccc4ccccc34)ccc2OC)c1 (stereo not drawn),1.35,nt
COC(=O)c1cc2occc2n1Cc1cn2ccccc2n1,2.6,1
COC(=O)Cn1cc(/C=C2/C(=O)NC(=O)N(c3ccc(Br)c(C)c3)C2=O)c2ccccc21,0.4,nt
CCOC(=O)c1c(-c2ccccc2)csc1/N=C\c1nc(-c2ccccc2)oc1O,-1.61,nt
Cc1ccc(SC(=O)N2CCOCC2)cc1,0.225,1.3
Cc1ccc(S(=O)(=O)n2nc(C)c(Sc3nccn3C)c2C)cc1,-0.595,-0.3
CCOC(=O)c1c(/N=C/N(C)C)sc(C(=O)OC)c1C,nt,2.95
Cc1nn(-c2ccccc2)c(C)c1CN1CCCCC1COC(=O)NCc1ccc2c(c1)CCO2 (stereo not drawn),-0.225,nt
CCn1c(SC)nnc1C1CCCN(S(=O)(=O)c2ccc3c(c2)OCCO3)C1 (stereo not drawn),nt,-0.8
CCC1CCCCN1C(=O)CSc1cccc[n+]1[O-] (stereo not drawn),nt,-0.6
COc1ccc(C2=CSC3=C(C(=O)c4cccc(S(=O)(=O)N5CCOCC5)c4)CCN23)cc1,nt,-0.55
COc1c(NC(=O)N2CC(C)OC(C)C2)csc1Cl (stereo not drawn),0.175,0.1
Cn1c(=O)cc(OCC(=O)Nc2ccc(F)cc2F)c2ccccc21,0.52,0.55
CNC(C)[C@@H](O)c1ccc(O)cc1 (stereo partly drawn),0.14,-0.1
Oc1ccccc1-n1cccc1,0.185,-0.4
COc1ccc(CCNC(=O)CN(c2ccc(Cl)cc2Cl)S(=O)(=O)c2ccccc2)cc1OC,-0.1,nt
CCCC(=O)NCCc1nc2ccccc2n1C,-0.455,-1.05
Cc1cc(C)nc(SCC(=O)Nc2ccc(N3CCOCC3)cc2)n1,nt,-0.35
CCCCOc1ccccc1-n1c(-c2cccc(OC)c2)cn2c3c(=O)n(C)c(=O)n(C)c3nc12,0.045,nt
CS(=O)(=O)c1ccc(C(=O)NC2CCCCC2)cc1,nt,-0.6
COc1cc(CN2CCC(NC(=O)N(Cc3ccc(OC(C)C)cc3)Cc3ccco3)C2)cc2c1OCO2 (stereo not drawn),-0.455,nt

# Next section:
SMILES,Ba CapD inh,AID504770
COC(=O)c1cn(NC(=O)CC2CCCCC2)c(=O)c2ccccc12,2.62,-0.6
CNC(=O)N1c2ccccc2NC(=O)CC1C (stereo not drawn),-0.165,-0.35
CCOc1ccc(-n2c(=O)c3sccc3n(CC(=O)Nc3cccc(C(F)(F)F)c3)c2=O)cc1,0.09,-0.65
Cc1ccccc1OCCCn1cnc2ccccc21,-0.105,-0.25
O=C(CSc1nnnn1-c1ccccc1)NC1Cc2ccccc2C1,-0.025,nt

# Source: PubChem (ICCB-Longwood Screening Facility, Harvard Medical School)
